PINK1 expr mod: A Quantitative High throughput Screen to Identify Chemical Modulators of PINK1 Expression. PINK1 immunofluorescence, high-content cytometry, 24 h. Potency, µM (highest dose often 76.6 µM), for inactives: at the top dose activation (PINK1 increase), hits mostly activators. 0.2% of 410,000 active. AID 624263, 2012; active = well fitted activation curve with a large enough effect; inconclusive = small, poorly fitted or top-dose-only effect; inactive = flat fitted curve, though single readings scatter; cell line not stated here;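 note: potency is the fitted concentration of half-maximal effect; % of control where 0% means no effect; nearly all actives have a fitted effect of over 65% in size; a mitochondrial uncoupler was the plate control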
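Fluorescence from anti-PINK1 antibody, together with nuclear and cell stains, was scanned on a laser-scanning cytometer. Before staining, stable-line cells were incubated 24 hours with compounds at 5 concentrations; primary antibody 12 h at 10 degrees C.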
D2 PAM: Beta-Arrestin HTS for Positive Allosteric Modulators of the Human D2 Dopamine Receptor: Potentiators | DiscoveRx D2 beta-arrestin cells, luminescence, 90 min; 100% = 57 uM dopamine signal | 0.23% of 360,000 active | potentiation, % (concentration not given with the values) | D(2) dopamine receptor (Homo sapiens), P14416; active = potentiation of 50% or more; inconclusive = 30% to 50%; inactive = 30% or less;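 note: compound concentration not given in the record; tested on top of an EC20 dose of dopamine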
Target sequence (P14416 whole entry, looked up): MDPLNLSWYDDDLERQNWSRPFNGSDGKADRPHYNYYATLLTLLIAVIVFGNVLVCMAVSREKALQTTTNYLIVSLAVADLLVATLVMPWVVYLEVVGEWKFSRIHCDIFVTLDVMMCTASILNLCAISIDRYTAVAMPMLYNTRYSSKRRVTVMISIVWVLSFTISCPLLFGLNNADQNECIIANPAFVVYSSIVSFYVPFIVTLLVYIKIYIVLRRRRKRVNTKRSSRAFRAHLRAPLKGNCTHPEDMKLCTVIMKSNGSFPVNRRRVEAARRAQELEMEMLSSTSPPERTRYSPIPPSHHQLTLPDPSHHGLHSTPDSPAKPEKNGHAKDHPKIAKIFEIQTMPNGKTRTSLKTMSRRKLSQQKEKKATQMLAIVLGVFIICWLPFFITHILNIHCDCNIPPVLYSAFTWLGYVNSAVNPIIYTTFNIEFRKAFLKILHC
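PathHunter beta-arrestin assay in DiscoveRx D2 cells. Compounds were added with an EC20 of dopamine (50 nM final) for 90 min at 37 deg C. Luminescence was read 1 h after detection reagent, with 57 uM dopamine as the EC100 control.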
Six1-Eya2 inh: qHTS Assay for Inhibitors of the Six1/Eya2 Interaction. Homeobox protein SIX1 (Homo sapiens) + Protein phosphatase EYA2 (Homo sapiens), …. AlphaScreen GST-Six1/His-Eya2 binding, biochemical; hits give low values; control for the full effect not named in the record. activity change, % (concentration not given with the values). 0.56% of 360,000 active. AID 651725, 2012; in the data active = activity change below about -65%; inconclusive = about -30% to -65%; inactive = above about -30%; note: % is set by controls: 0 for no effect and ±100 for the full control effect
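AlphaScreen luminescence read after one hour at 37 °C in darkness. Pin-transferred compounds met GST-Six1 and His-Eya2 protein (5X stock 250 nM/500 nM) plus glutathione donor and Ni-chelate acceptor beads (5X, 50 ug/mL).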
TRPML1 ag: qHTS for Agonists of the Human Mucolipin Transient Receptor Potential 1 (TRPML1) | activation, % (test concentration not listed) | TRPML1-expressing cells, Ca2+ dye fluorescence, FDSS; host cell line not named in the record; reference of the full effect not given here | AID 624414, 2012 | Mucolipin-1 (Homo sapiens), Q9GZU1 | 0.12% of 410,000 active; in the data active = activation above about 50%; inconclusive = about 30% to 50%; inactive = below about 30%; note: 0% is about no effect; the text of the record puts the active cut at 80%
Target sequence (Q9GZU1 whole entry, looked up): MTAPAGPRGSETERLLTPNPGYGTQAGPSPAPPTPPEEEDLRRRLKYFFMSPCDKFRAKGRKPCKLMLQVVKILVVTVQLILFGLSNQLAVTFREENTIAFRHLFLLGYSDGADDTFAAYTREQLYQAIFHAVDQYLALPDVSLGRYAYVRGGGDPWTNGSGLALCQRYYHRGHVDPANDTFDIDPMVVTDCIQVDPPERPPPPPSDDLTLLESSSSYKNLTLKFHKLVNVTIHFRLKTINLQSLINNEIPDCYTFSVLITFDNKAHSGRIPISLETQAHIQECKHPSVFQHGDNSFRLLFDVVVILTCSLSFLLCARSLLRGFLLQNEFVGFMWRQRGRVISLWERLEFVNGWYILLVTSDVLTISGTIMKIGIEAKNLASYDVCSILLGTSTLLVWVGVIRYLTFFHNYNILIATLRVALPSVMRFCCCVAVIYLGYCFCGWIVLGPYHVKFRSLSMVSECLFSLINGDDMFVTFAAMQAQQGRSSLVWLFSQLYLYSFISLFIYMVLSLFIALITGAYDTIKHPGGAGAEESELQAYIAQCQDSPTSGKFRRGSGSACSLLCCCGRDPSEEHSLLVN
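TRPML1-DL cells, Tet-induced overnight (~16 h, 37 degrees C), loaded 45-90 min at room temperature with Ca8 no-wash calcium dye plus quencher. FDSS fluorescence: 10 s baseline, compound pin-transfer, 110 s agonist read, then EC80 54-4 (4uM final) and 110 s antagonist read.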
TRPML1 inh: qHTS for Inhibitors of the Human Mucolipin Transient Receptor Potential 1 (TRPML1); TRPML1-inducible cells, Ca2+ dye fluorescence, FDSS; hits give low values; inhibition of EC80 agonist-evoked calcium signal; activity change, negative = inhibition, % (no concentration beside the values); 0.02% of 390,000 active; Mucolipin-1 (Homo sapiens), Q9GZU1; in the data active means activity change below about -50%; inconclusive means about -30% to -50%; inactive means above about -30%;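 note: stimulus is agonist 54-4 at its EC80 concentration; % is set by controls: 0 for no effect and ±100 for the full control effect; compound concentration not given in the record; the text of the record puts the active cut at -80%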
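Calcium fluorescence in TRPML1-DL cells induced overnight with Tet: a 110 s read after compound pin addition, then a 110 s antagonist read after challenge with 54-4 at 4 uM final (EC80).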
D2 agonist: Beta-Arrestin HTS for Positive Allosteric Modulators of the Human D2 Dopamine Receptor: Agonists; D(2) dopamine receptor (Homo sapiens), P14416; DiscoveRx PathHunter D2 beta-arrestin, luminescence, 90 min; 100% = 57 uM dopamine signal; activation, % (no concentration beside the values); 0.084% of 360,000 active; AID 624465, 2012; in the data active = activation above about 40%; inconclusive = about 15% to 40%; inactive = below about 15%; note: compound concentration not given in the record; the text of the record calls up to 30% inactive
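Agonist mode: compounds alone added to overnight-plated D2 PathHunter cells for 90 min at 37 C, with 57 uM final dopamine (EC100) defining full response. Beta-arrestin recruitment detected by chemiluminescent reagent, read after 1 h at ambient temperature.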
Starred values were filed as active, the others as inactive; ? = inconclusive; nt = not tested or not shown; & = joins results of further samples; [ ] = another dose, or the depositor's remark.

SMILES	PINK1 expr mod	D2 PAM	Six1-Eya2 inh	TRPML1 ag	TRPML1 inh	D2 agonist
Cc1ccc(N(CCC(=O)N2CCOCC2)S(=O)(=O)c2ccccc2)cc1	-0.3%	-7	5	0.5	11	2.5
O=C(Nc1c2c(nn1-c1cccc(Cl)c1)CS(=O)(=O)C2)c1cccs1	2.6%	-8	2	0.6	1	0.8
Cc1[nH]n(-c2ccc([N+](=O)[O-])cc2)c(=O)c1C=NCCN1CCN(C(=O)c2ccccc2F)CC1	-2.5%	-10	-1	-0.6	-5	-4.8
Cc1ccc(S(=O)(=O)c2nc(-c3cccc(C)c3)oc2N2CCN(c3ccccc3)CC2)cc1	0.3%	nt	nt	1.1	13	nt
Cc1cccc(N2CCN(C(=O)c3cc(S(=O)(=O)N4CCCC4)cn3C)CC2)c1C	3.3%	-4	-5	-0.2	-11	-9.3
Cc1[nH]c(=O)[nH]c(=O)c1S(=O)(=O)N1CCCC1	1.9%	-16	3	0.7	-21	-0.9
CCOC(=O)c1nnn(-c2nonc2N)c1COc1cc(C)c(Cl)c(C)c1	2.2%	-3	2	1.3	6	-1.8
COn1c(SCc2ccccc2)nc2ccccc2c1=O	2.9%	-5	11	2.0	-4	0.5
CCN(CC(=O)Nc1ccccc1OC)C(=O)c1cc(-c2ccccc2)nn1-c1ccccc1	-4.0%	-19	-1	3.4	65	-6.7
Cc1ccccc1NC(=O)c1c(C)cc(=O)oc1C	-1.1%	2	2	0.7	15	-0.5
CC(=O)c1ccc(N2CCN(S(=O)(=O)c3cc4c(cc3C)NC(=O)CO4)CC2)cc1	0.9%	15	-1	0.3	56	2.1
CCOC(=O)C1(CCOc2ccccc2)CCN(Cc2cnc(SC)nc2)CC1	0.1%	-13	-7	3.7	13	5.3
CNC(=O)c1nc(C)c(C2(C)CC(c3ccccc3)=NO2)s1 (configuration not stated)	2.1%	1	1	-0.8	3	-2.3
CCCCNC(=O)c1ccc(Cn2c(=S)[nH]c3c([nH]c4ccc(OC)cc43)c2=O)cc1	0.5%	5	2	-0.4	11	0.4
COc1cccc(CNC(=O)CN2C(=O)COc3ccc(S(=O)(=O)N4CCCCCC4)cc32)c1	6.9%&0.9%	-6	9	0.4&0.0	-6&-6	-0.5

Part of the list above, limited to Six1-Eya2 inh and TRPML1 ag:
structure | Six1-Eya2 inh | TRPML1 ag
Cc1ccc(S(=O)(=O)c2nc(-c3cccc(C)c3)oc2N2CCN(c3ccccc3)CC2)cc1 | nt | 1.1
CCCCNC(=O)c1ccc(Cn2c(=S)[nH]c3c([nH]c4ccc(OC)cc43)c2=O)cc1 | 2 | -0.4
CCOC(=O)C1(CCOc2ccccc2)CCN(Cc2cnc(SC)nc2)CC1 | -7 | 3.7
Cc1cccc(N2CCN(C(=O)c3cc(S(=O)(=O)N4CCCC4)cn3C)CC2)c1C | -5 | -0.2

The listing continues.
SMILES	PINK1 expr mod	D2 PAM	Six1-Eya2 inh	TRPML1 ag	TRPML1 inh	D2 agonist
CCOC(=O)N1CCN(c2c(NCCOC)c(=O)c2=O)CC1	1.9%	-4	10	0.1	-3	-1.8
CCC(=Nc1ccc(Cc2ccncc2)cc1)c1c(O)n(C)c(=O)n(C)c1=O	0.5%&-0.4%	-12	9&4	0.5&-0.7	14	-1.2
Nc1nonc1-n1nnc(C(=O)N/N=C/c2cccc(F)c2)c1-c1ccccc1	0.9%	1	?	-1.0	-9	-6.8
O=C(Nc1nc(-c2cc3ccccc3oc2=O)cs1)c1ccco1	2.1%	2	7	-0.3	3	-5.3
CCOc1ccc(NC(=O)c2cnn3c(C(F)F)cc(-c4ccc(C)cc4)nc23)cc1	1.6%	nt	nt	0.3	8	nt
COc1ccccc1-c1nnc(NC(=O)c2ccc(S(=O)(=O)N3CCCC3)cc2)o1	0.3%	0	-11	0.2	-2	0.6
Cc1ccc(/C=C/c2onc(C)c2S(=O)(=O)N2CCC(C(=O)Nc3cc(F)ccc3F)CC2)cc1	1.6%	nt	nt	-0.2	18	nt
CC(C)Cn1cc(NC(=O)N2CCN(c3cccc(Cl)c3)CC2)c2ccccc2c1=O	-3.3%	nt	nt	1.7	10	nt
O=C(O)c1ccc(S(=O)(=O)c2ccc3c(c2)C(=O)N(CC2CCCO2)C3=O)cc1 (configuration not stated)	0.1%	-2	-1	0.3	34	0.9
CC1C=CC(C)C(C(=O)c2ccccc2)C1C(=O)c1ccccc1 (configuration not stated)	13%	-3	3	0.6	-15	-0.7
Cc1cc2ncn(CC(O)COc3cccc(C(=O)O)c3)c2cc1C (configuration not stated)	-0.3%	-4	3	-0.3	-1	1.8
CCOc1ccc(Br)cc1S(=O)(=O)Nc1ccc(Cl)c(S(=O)(=O)N(CC)c2ccccc2)c1	?	28	-18	0.8	8	9.8
CC1=NC(C)(C)Cc2ccccc21	-3.8%	-6	4	-0.8	-4	-0.4
O=C(c1ccc(Cl)cc1)N1CCCC(C(=O)N2CCc3ccccc3C2)C1 (configuration not stated)	2.4%	0	-2	-0.7	3	0.6
COCCNc1cc(N2CCN(C3CCCCC3)CC2)c2noc3c2c1C(=O)c1ccccc1-3	1.2%	nt	nt	-0.1	-14	nt
Cc1n[nH]c(=O)c2c(NC(=O)CSc3ccccc3Cl)oc(C)c12	1.7%	-13	-1	0.6	20	-3.6
COC(=O)CCC(=O)Nc1sc(C)c(C)c1C(N)=O	-2.7%	-16	-5	-1.2	-9	-5.5
CC(C)Oc1cc(F)ccc1-c1cc(C(=O)NC2CCCCC2)[nH]n1	1.1%	-17	-9	-0.7	nt	-0.6
O=C(COC(=O)c1cccc(NC(=O)c2ccc(Br)cc2)c1)c1ccc(Br)cc1	1.8%	nt	nt	0.8	15	nt
CCN(C(=O)c1ccc(NC(C)=O)cc1)c1ccccc1C	-1.5%	-10	0	0.1	48	-2.0
CSC(=NS(=O)(=O)c1ccc(N)cc1)NS(=O)(=O)c1cccs1	-2.1%	-3	18	1.1	23	-3.5
Cc1ccc(NC(=O)Cn2c(=O)c3cccn3c3ccccc32)cc1	6.3%	-4	5	-0.8	8	-2.4
N=C1C(c2nc3ccccc3[nH]2)=C(O)CN1C1CCCCC1	8.8%	-14	3	-0.6	-19	-6.2
CCN(c1ccc(NC(=O)CN2C(=O)NC3(CCOc4ccccc43)C2=O)cc1)C(C)C (configuration not stated)	0.6%	4	?	-1.0	21	0.3
Cc1ccc(C2CC(C(F)(F)F)n3nc(C(=O)NCc4c(C)nn(C)c4C)c(Cl)c3N2)cc1 (configuration not stated)	2.7%[38.3 µM]	23	-1	2.6	65	11
O=C(Nc1ccc2[nH]c(=O)[nH]c2c1)c1cccc([N+](=O)[O-])c1	2.5%	23	-1	nt	nt	1.7
COc1ccc(OC)c(S(=O)(=O)CC(O)CS(=O)(=O)c2ccccc2)c1 (configuration not stated)	1.7%	-2	0	0.6	48	-1.3
Cc1ccc(N(CC(=O)NCc2ccc3c(c2)OCO3)C(=O)c2csnn2)cc1	-1.7%	-9	2	-0.2	-25	-0.9
CCCCn1c(O)c(N=NC(=O)c2ccncc2)c2cc(Br)ccc21	7.2%	-2	-1	2.0	32	-2.8
c1cncc(-c2ccnc3ncnn23)c1	-0.3%	2	5	0.3	16	-1.0
O=C(NCC1OCCCN1S(=O)(=O)c1ccc(F)cc1)C(=O)NC1CCCC1 (configuration not stated)	-0.1%	2	14	0.2	-15	-6.7
CC(=O)c1cn(C(=O)c2ccc(Cl)cc2)c2ccccc12	2.0%	-1	3	-0.2	17	-1.5
O=C(/C=C/c1ccc(Cl)cc1)NCCCN1CCOCC1	-1.1%	-23	3	0.1	-4	-1.9
Cc1cccc(N2CCn3c2nc2c3c(=O)n(CCCc3ccccc3)c(=O)n2C)c1	0.2%	nt	nt	1.8	-2	nt
CC(=O)Nc1cc2nn(-c3ccccc3)nc2cc1C	-0.2%	-1	-14	-0.8	4	2.5
COc1ccc(S(=O)(=O)N2CCC(N3CCCCC3)CC2)cc1	-0.9%	-17	0	-0.3	2	-4.5
CCOc1ccccc1NC(=O)CCS(=O)(=O)c1cccs1	-0.7%	-6	-4	0.5	30	-3.3
CCn1c(C2CC(=O)N(c3ccc(C)c(C)c3)C2)nc2ccccc21 (configuration not stated)	1.4%	-15	-1	0.4	-6	-3.5
Cc1cc(C)c(NC(=O)CCCN2CCCC2)c(C)c1	-1.9%	-6	9	-0.5	-7	-1.7
CCCCn1c(-c2ccc(C(C)(C)C)cc2)nc2cc3[nH]c(=O)c(C(C)C)nc3cc21	7.7%	0	-3	0.1	-15	0.2
CCc1nn(C(C)C(=O)NC2CCCCCC2)c(=O)c2cc3occc3n12 (configuration not stated)	-0.5%	-6	-26	-0.8	-16	-5.2
COc1ccc(-c2ccc(SCC(=O)NCc3ccc4c(c3)OCO4)nn2)cc1OC	1.4%	19	-16	3.4	-2	1.3
CC(=O)NC(c1cccc(F)c1)c1nc(-c2cccc(C(=O)O)c2)cs1 (configuration not stated)	0.3%	-2	?	-0.3	nt	-1.8
CCC(CC)Nc1ccc(C(CC(N)=O)NC(=O)Cc2cccc3ccccc23)cc1[N+](=O)[O-] (configuration not stated)	7.5%	-13	-6	0.6	5	-3.6
COc1ccccc1OCC(=O)Nc1ccc(S(=O)(=O)Nc2nc(C)cc(C)n2)cc1	2.5%[38.3 µM]	4	0	-0.3	-5	2.5
CN(CC(=O)Nc1ccc(F)cc1)C(=O)Cn1c(=O)oc2ccccc21	1.2%	5	3	-0.4	-2	3.2
CC(C)NC(=O)c1ccccc1S(=O)(=O)c1ccccc1C#N	0.0%	-4	8	0.8	9	-1.0
CCc1cc2cc(C(=O)N3CCN(c4ccccc4)CC3)sc2s1	1.7%	-1	-4	1.1	12	1.2
Cc1cc(C(=O)NC(C)c2ccncc2)cs1 (configuration not stated)	-1.9%[38.3 µM]	-8	2	2.5	?	0.2
COCCSc1ccccc1C(=O)Nc1ccc([N+](=O)[O-])cc1OC	8.0%	-10	-5	5.5	23	-3.9
CCOC(=O)c1cnc(N2CCN(c3ccc(C)cc3C)CC2)c2ccccc12	1.8%	nt	nt	-0.6	4	nt
COc1cc2ccccc2cc1C(=O)Nc1ccc(O)cc1	5.3%	26	0	-0.8	15	5.4
CC(=O)NCCNc1nc2c(-c3cccc(C(F)(F)F)c3)nnn2c2ccccc12	0.0%	-10	2	-0.5	28	-5.4
CC[C@@]1(C(=O)OC)N[C@H](CN(C)C(=O)c2ccc(C)cc2)[C@@H]2C(=O)N(Cc3ccccc3)C(=O)[C@@H]21	0.4%	-3	4	2.0	-14	-0.2

Screens as filed in PubChem.
